NPR1 antag: human Npr1 receptor antagonism. P16066. HEK293 hNpr1 GloSensor cGMP, ANP-stimulated luminescence. Potency, µM (highest dose often 46.3 µM), inactives show at the top dose activity change, negative = inhibition, actives largely listed as inhibitors. 76,000 compounds, 1.6% hits. AID 1347048; active = well fitted inhibition curve with a large enough effect; inconclusive = small, poorly fitted or top-dose-only effect; inactive = no such curve, though single readings can be large or run the other way;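 further: nearly all actives have a fitted effect of over 60% in size; nearly all hits also lower the signal before the agonist is added; a reference antagonist and vehicle were the controls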
Target sequence (P16066 whole entry, looked up): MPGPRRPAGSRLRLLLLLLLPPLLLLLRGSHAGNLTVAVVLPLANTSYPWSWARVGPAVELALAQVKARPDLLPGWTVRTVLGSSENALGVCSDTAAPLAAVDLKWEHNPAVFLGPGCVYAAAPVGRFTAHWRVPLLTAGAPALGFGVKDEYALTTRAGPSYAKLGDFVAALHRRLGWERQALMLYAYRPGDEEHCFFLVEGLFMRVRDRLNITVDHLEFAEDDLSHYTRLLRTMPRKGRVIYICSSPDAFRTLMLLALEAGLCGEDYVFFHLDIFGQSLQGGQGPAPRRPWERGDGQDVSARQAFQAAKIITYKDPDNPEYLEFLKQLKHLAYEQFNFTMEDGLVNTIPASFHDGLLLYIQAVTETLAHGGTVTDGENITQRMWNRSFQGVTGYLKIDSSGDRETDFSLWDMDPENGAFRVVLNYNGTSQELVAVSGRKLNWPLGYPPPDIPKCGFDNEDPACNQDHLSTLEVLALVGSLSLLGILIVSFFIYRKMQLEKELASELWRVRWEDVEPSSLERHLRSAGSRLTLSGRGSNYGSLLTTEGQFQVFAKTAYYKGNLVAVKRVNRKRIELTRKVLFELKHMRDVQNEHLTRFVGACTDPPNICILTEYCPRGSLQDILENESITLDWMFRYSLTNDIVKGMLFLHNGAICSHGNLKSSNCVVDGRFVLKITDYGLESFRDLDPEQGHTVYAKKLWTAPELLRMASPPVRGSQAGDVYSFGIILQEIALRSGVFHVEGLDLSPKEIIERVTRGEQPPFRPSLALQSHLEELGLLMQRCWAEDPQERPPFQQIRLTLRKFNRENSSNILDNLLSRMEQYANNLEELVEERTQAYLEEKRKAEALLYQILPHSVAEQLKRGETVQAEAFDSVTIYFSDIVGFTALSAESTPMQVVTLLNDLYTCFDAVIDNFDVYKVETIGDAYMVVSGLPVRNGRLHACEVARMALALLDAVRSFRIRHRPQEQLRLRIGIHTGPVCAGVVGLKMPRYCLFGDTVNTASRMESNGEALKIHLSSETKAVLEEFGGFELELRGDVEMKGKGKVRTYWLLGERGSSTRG
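HEK293 cells stably expressing human Npr1 and cGMP GloSensor pGS-40F, loaded 2 h with 2% GloSensor reagent, given compound 30 min at room temperature. Luminescence read before and 20 min after 0.1 nM hNppA.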
The depositor's hits bear a star; u = inconclusive; [ ] = remark or other dose. On the % scale 0 is the no-effect control and ±100 the full control effect; potency means the concentration at half of the fitted maximal effect.

no. | structure | NPR1 antag
1 | CC[C@H]1CN(C(=O)c2ccc(F)cc2)CC[C@H]1CC(=O)NC1CC1 | -0.6%[70.6 µM]
2 | Cc1ccc2nc(C3CCCN(Cc4cccc(-c5cccnc5)c4)C3)[nH]c(=O)c2c1 (stereo unspecified) | -25.7%
3 | COCCN1C(=O)[C@@H]2C[C@@H](CN2C(=O)C2CCOCC2)Oc2ccccc21 | 0.2%[70.6 µM]
4 | COc1ccc(-c2cnc3[nH]cc(CC(=O)N(C)C)c3c2)cc1 | u
5 | Cn1cc(CN(C(=O)c2ccc3nc(-c4ccccc4)cn3c2)C2CC2)cn1 | 2.9%
6 | Cc1noc(C)c1-c1cc(-c2ccccc2F)cn2cncc12 | -3.3%[70.6 µM]
7 | COc1ccccc1OCc1cc(C(=O)NC(CO)C(C)C)n[nH]1 (stereo unspecified) | -16.0%
8 | Cc1ccc(C(=O)N2CCC(CCC(=O)NC3CCS(=O)(=O)C3)CC2)cc1 (stereo unspecified) | -0.5%
9 | C#CCNC(=O)C[C@@H]1CCN(C(=O)c2ccc(F)cc2)C[C@@H]1CC | -2.2%[70.6 µM]
10 | COCC1CN(C2CCC2)CC12CCN(C(=O)c1cncn1C)CC2 (stereo unspecified) | -7.4%
11 | CCOc1ccc(-c2cnc(-c3cnc(CC)nc3)[nH]2)cc1OCC | -0.7%
12 | CC1(C)[C@H](Cc2cc(-c3ccc(F)cc3)on2)C[C@@H]1NS(C)(=O)=O | u
13 | CCOc1ccc(C(=O)NC2CCN(c3cc(-c4ccc(Cl)cc4)[nH]n3)C2)cc1 (stereo unspecified) | -18.1%
14 | CC(=O)c1ccc(NC(=O)O[C@@H]2CO[C@H]3[C@@H]2OC[C@@H]3NC(=O)C2CC2)cc1 | 6.0%[70.6 µM]
15 | CCNC(=O)NCCc1noc(-c2ccncc2)n1 | 4.9%
16 | CC(=O)N[C@H](C)c1onc(-c2ccc(F)cc2)c1C(=O)O | 0.5%[70.6 µM]
17 | COCCC1(NC(=O)C2CC2)CCN(S(=O)(=O)c2c(C)noc2C)CC1 | -5.7%
18 | Cc1nc(N2CCC(NCCCc3ccncc3)CC2)c2ccsc2n1 | 2.3%
19 | Cn1cc(-c2ccc(F)c(Cl)c2)c2nc(CO)cn2c1=O | 2.6%[70.6 µM]
20 | Cc1noc(C)c1-c1cc2c(cc(C)n2C)c(-c2cccc(O)c2)n1 | -25.9%[70.6 µM]
21 | CC(C)(C)C(=O)N[C@H]1CO[C@H]2[C@@H]1OC[C@H]2O | 3.4%[70.6 µM]
22 | COc1ccc2[nH]cc(CCNC(=O)CN3CCCc4nc(C5CC5)ncc4C3=O)c2c1 | -0.8%
23 | CCNC(=O)[C@@H]1C[C@H](NC(=O)CO)CN1Cc1cc(C2CCCCC2)no1 | 8.7%
24 | COc1cc(NC(=O)N2CCC3(CC2)SCC(=O)N3Cc2ccco2)cc(OC)c1 | -3.2%
25 | O=C1CCN(Cc2cccnc2)CCCC(C(=O)N2CCOCC2)CCN1 (stereo unspecified) | -0.6%
26 | Cc1cc(S(=O)(=O)N2CCN(C3CCN(Cc4ccccn4)C3=O)CC2)ccc1Cl (stereo unspecified) | -17.9%
27 | C[C@H]1[C@@H]2[C@@H](O)C([C@H](C)C(=O)NC3CCCCC3)CC[C@@]2(C)CC[C@@H]1NC(=O)c1cnccn1 (stereo partly specified) | -10.5%
28 | CC(C)n1ccnc1CN1CCCC12CCN(c1ccc(C(F)(F)F)cn1)CC2 | 2.5%
29 | COc1ccccc1C(=O)N1CCC(Cc2n[nH]c(C)n2)CC1 | 2.8%
30 | Cc1nc2c(c(=O)[nH]1)CCN(C(=O)c1ccccc1C(F)(F)F)C2 | 0.4%
31 | O=C(CN1C(=O)NC(c2ccccc2Cl)C2=C1COC2=O)Nc1ccccc1C(F)(F)F (stereo unspecified) | -1.0%
32 | CC(=O)N1CC2(Cc3ccccc3N([S+](C)(=O)[O-])C2)C1 | -14.1%[70.6 µM]
33 | Cc1noc(-c2cn(C3CCCN(C(=O)c4cccc5[nH]ccc45)C3)nn2)n1 (stereo unspecified) | -14.6%
34 | O=C(CC1CCCC1)N1CCCC(Cc2nc(C3CCOCC3)no2)C1 (stereo unspecified) | -13.7%
35 | COc1ccc(-c2cn3c(n2)CO[C@@H](CNC2CCC2)C3)cc1 | 0.4%[70.6 µM]
36 | Cc1nncn1CCN1C(=O)N(CCc2ccccc2)C2(CCNCC2)C1=O | -1.3%
37 | Cc1cnc(CN(C)Cc2cn(-c3ccccc3)nn2)[nH]1 | 0.5%
38 | O=C(NCCOc1ccccc1)c1nc2c(o1)CCN(Cc1cc(F)ccc1F)CC2 | -3.7%[70.6 µM]
39 | O=C(NC1CCCCC1)N[C@H]1CO[C@H]2[C@@H]1OC[C@@H]2n1nnnc1-c1ccc2c(c1)OCO2 | 2.2%
40 | COCCNC(=O)CCC1CCN(S(=O)(=O)c2cccc(F)c2)CC1 | 0.2%
41 | C[C@@H](c1ccccc1)N(C)C(=O)c1cc(Cn2cnc3ccccc32)[nH]n1 | u
42 | CCOc1ccccc1C1NC(=O)N(CC(=O)Nc2ccc(C)c(F)c2)C2=C1C(=O)OC2 (stereo unspecified) | -19.9%
43 | Cn1cnc(C(=O)N2CCC(C3CCN(S(C)(=O)=O)CC3)C2)c1 (stereo unspecified) | 2.0%
44 | COCCn1ncc(N2CCC(NC(=O)C3CCC3)CC2)cc1=O | 3.0%
45 | Cc1nccn1CC(=O)NCC1CCN(c2cc(-c3ccccc3)[nH]n2)CC1 | -0.3%
46 | O=C(c1ccc(F)cc1Cl)N1CCC(c2n[nH]c(=O)n2-c2ccccc2)CC1 | -1.5%
47 | COCCc1nncn1C1CCN(S(=O)(=O)c2ccccc2C(F)(F)F)CC1 | 2.0%
48 | COCC1CN(C(=O)c2cccc(Br)c2)CC12CCNCC2 (stereo unspecified) | 1.2%
49 | CC(C)CN1C(=O)c2cccn2CC1C(=O)NCCN(C)C1CCCCC1 (stereo unspecified) | 1.9%
50 | CO[C@H]1[C@H](NC(=O)c2ccc3n[nH]nc3c2)c2ccccc2C12CCNCC2 | -0.1%
51 | Cc1ccc(NS(=O)(=O)c2ccccc2)c(=O)n1CC(=O)NCc1cccc(Cl)c1 | -10.1%
52 | O=C(CCC1CCN(S(=O)(=O)c2ccccc2)CC1)N1CCCC1 | -3.0%
53 | CN(C)Cc1cn(C[C@H]2C[C@@H](NC(=O)COc3ccccc3)[C@H](O)[C@@H]2O)nn1 | 7.9%[70.6 µM]
54 | COCCOc1ccc2c(n1)CCN(C(=O)C1CCCC1)C2 | 2.6%
55 | COc1nc2c(cc1CNC(=O)c1cnc(C)nc1)C(=O)N(C1CCCC1)C2 | 2.6%
56 | N#Cc1ccc(C(=O)NC2CCN(c3cc(-c4cccs4)[nH]n3)C2)cc1 (stereo unspecified) | -10.8%
57 | O=C(Cc1cccs1)N1CCC(Oc2ncccc2C(=O)N2CCCCC2)C1 (stereo unspecified) | 3.9%
58 | COc1cc(CN2C[C@@H](F)[C@@H](OCc3nc4ccc(F)cc4[nH]3)C2)cc(OC)c1OC | 1.1%[70.6 µM]
59 | Cc1ccc(NC(=O)C2(Cc3cccnc3)CCCCC(=O)N2)cc1 (stereo unspecified) | 3.3%
60 | COc1ccc(C2Cn3nnc(-c4noc(-c5cccc(Cl)c5)n4)c3CO2)cc1 (stereo unspecified) | 8.2%

Next section.
no. | structure | NPR1 antag
61 | CC1=NS(=O)(=O)N(C)C=C1C(=O)OCc1nc(-c2ccc(Cl)cc2)no1 | 10µM*
62 | O=C(CC1CCCN(c2cn[nH]c(=O)c2)C1)Nc1ccc(F)cc1F (stereo unspecified) | 14.6%
63 | O=C1Nc2ccccc2C12CCN(c1cc(C3CC(O)C3)ncn1)CC2 (stereo unspecified) | 3.9%
64 | CCCCNC(=O)c1nnn2c1COC(c1ccc(F)cc1)C2 (stereo unspecified) | 1.2%
65 | CCCN(CC1CCOC1)C(=O)c1cc(F)cc(F)c1 (stereo unspecified) | 2.7%
66 | N#Cc1ccc(S(=O)(=O)N2CCCCCCNC(=O)CC2)cc1 | 3.5%
67 | CCN(CC)C(=O)N1CC(Oc2ccc(-c3nc(C)no3)cc2)C1 | 15.8µM*
68 | CN1CCC([C@@H]2CN(C(=O)c3nn(C)c4ccccc34)C[C@H]2C(N)=O)CC1 | 3.1%
69 | O=C1CC(c2ccccc2)N(C(=O)C2CC2)CCCN(C(=O)CCc2ccccc2)CCN1 (stereo unspecified) | -0.3%
70 | CCN1c2cc(C(=O)Nc3ccc(Cl)cc3C)ccc2C(=O)N2CCCCCC21 (stereo unspecified) | 6.2%
71 | CN1c2cc(C(=O)N3CCOCC3)ccc2OCC1CC(=O)NC(CO)CO (stereo unspecified) | 0.0%
72 | COc1cccc(C(=O)NC2CCN(c3cnn(C)c(=O)c3)CC2)c1OC | 2.6%
73 | CN1C[C@@H](NS(=O)(=O)c2ccccc2)C[C@H]1c1nc(-c2cnccn2)no1 | 1.2%[70.6 µM]
74 | CC(C)C(=O)N[C@H]1[C@H](O)[C@H](O)C[C@@H]1c1ccc(C(F)(F)F)nc1 | 3.6%[70.6 µM]
75 | CN(C)[C@H]1CCN(C(=O)Cc2cn(C)c3ccccc23)C[C@H]1CCC(=O)O | -1.0%
76 | CCC(C(=O)N1CCC(c2n[nH]c(=O)n2Cc2ccc(OC)cc2)CC1)c1ccccc1 (stereo unspecified) | -0.6%
77 | O=C(O)C[C@@H]1CCN(C(=O)c2ccc(C(F)(F)F)cc2)C[C@@H]1CCN1CCOCC1 | 0.2%[70.6 µM]
78 | Cn1cnc(S(=O)(=O)N[C@H]2CCN(C(=O)c3ccco3)[C@H](C(=O)N[C@@H](Cc3cccs3)C(N)=O)C2)c1 | 9.8%
79 | Cc1cc(C)nc(SCc2ccc(C(=O)N3CC[C@@](C)(O)[C@@H](O)C3)o2)n1 | 0.9%
80 | O=C1NC(C(=O)NC2CCCC2)Cn2cccc21 (stereo unspecified) | -3.8%
81 | CCOC(=O)C1(Cc2ccc(F)cc2F)CCCN(C(=O)c2c(C)nc3ncccn23)C1 (stereo unspecified) | -2.4%
82 | Cc1ccccc1NC(=O)c1ccc2c(c1)OCCN(CCC(F)(F)F)C2 | -1.1%[70.6 µM]
83 | Cc1ccc(CNC(=O)CCc2ccc3c(c2)CN(C(=O)NC(C)C)CCO3)o1 | 3.3%
84 | CC(C)c1nc2c(c(-c3ccc(O)cc3)n1)CN(C(=O)c1ccccc1)CC2 | -14.1%
85 | O=C1N2CCCC2CN1C1CCN(Cc2cccnc2)CC1 (stereo unspecified) | 16.3%[70.6 µM]
86 | O=C(NC[C@H]1O[C@@H](CO)[C@@H](O)[C@H]1N1CCN(c2ccccc2)CC1)c1ccccc1Cl | -0.6%
87 | Cc1cccc(-c2noc([C@@H]3C[C@@H](O)CN3C3CCOCC3)n2)c1 | -5.9%[70.6 µM]
88 | COc1ccc(OC)c(CN2CCOc3ccc(C(=O)NCc4ccccc4F)cc3C2)c1 | -1.0%
89 | O=C(NC1CCCC1)N1CCC(OCCOc2cccnc2)CC1 | 3.6%
90 | CC(C)C[C@@H]1N[C@H](C(=O)N(C)CCC#N)Cc2c[nH]c3cccc1c23 | 10.7%[70.6 µM]
91 | CC1=C[C@@H](CNC(=O)CCC(=O)O)[C@H](C(C)C)C[C@H]1Cc1nc2ccncc2[nH]1 | 6.7%[70.6 µM]
92 | O=C1NCCCCCCN(Cc2ccncc2)[C@@H]2CN(CC3CC3)CC[C@@H]12 | 6.7%
93 | Cc1noc([C@@H]2CN(C(=O)COc3ccc(F)cc3)C[C@H]2CO)n1 | -0.8%
94 | CN1C(=O)c2cccn2CC1CNC(=O)c1ccnn1C (stereo unspecified) | -4.6%
95 | COc1ccc(-c2noc([C@@H]3CCCN3C(=O)c3cc(Cl)ccc3F)n2)cc1OC | -14.2%
96 | O=C(N[C@H]1CCN2C(=O)c3ccccc3NC(=O)[C@H]12)c1cccc(F)c1 | -0.1%[70.6 µM]
97 | COc1ccccc1C(=O)N1CCC(Cc2nc(C(C)C)no2)CC1 | -4.3%
98 | O=C(CN1CCn2nc(CO)cc2C1)N1CCOc2ccccc21 | 4.9%
99 | COc1ccc(-c2nc(C3CC(=O)N(C4CCCCC4)C3)no2)c(C)c1 (stereo unspecified) | -22.0%
100 | COCCOCc1nc(C2CCCCN2S(=O)(=O)c2cccc(OC)c2)no1 (stereo unspecified) | 0.4%
101 | COc1cccc(C(=O)N2CCn3c(nn(-c4ccncc4)c3=O)C2)c1 | -9.3%
102 | COc1ccc(-c2ccc3ncc(Nc4ccc5c(c4)OCCO5)n3n2)cc1OC | -16.6%[70.6 µM]
103 | CC(C)N1CCN(C(=O)C2CCN(c3cnn(CC4CC4)c(=O)c3)C2)CC1 (stereo unspecified) | 8.6%
104 | O=C(Cc1ccccc1Cl)N1CCC(n2cc(-c3nc(-c4ccccc4)no3)nn2)CC1 | -0.4%
105 | O=C(NC1CCN(c2cn[nH]c(=O)c2)CC1)C1CCC1 | 1.6%
106 | CCOCCn1cc(C2CCN(S(=O)(=O)c3cccc(Cl)c3C)CC2)c2ccccc21 | -11.6%
107 | COc1cccc(CNC2(Cc3cc(C(C)(C)O)on3)COC2)c1 | 1.7%[70.6 µM]
108 | COc1ccc(CC(=O)N2[C@@H]3CC[C@H]2CC(NC(=O)c2ccncc2)C3)cc1 (stereo partly specified) | 1.5%

Ordered by the number under NPR1 antag (descending): 5 of the compounds above
no. | structure | NPR1 antag
78 | Cn1cnc(S(=O)(=O)N[C@H]2CCN(C(=O)c3ccco3)[C@H](C(=O)N[C@@H](Cc3cccs3)C(N)=O)C2)c1 | 9.8%
108 | COc1ccc(CC(=O)N2[C@@H]3CC[C@H]2CC(NC(=O)c2ccncc2)C3)cc1 (stereo partly specified) | 1.5%
37 | Cc1cnc(CN(C)Cc2cn(-c3ccccc3)nn2)[nH]1 | 0.5%
40 | COCCNC(=O)CCC1CCN(S(=O)(=O)c2cccc(F)c2)CC1 | 0.2%
101 | COc1cccc(C(=O)N2CCn3c(nn(-c4ccncc4)c3=O)C2)c1 | -9.3%

Assay outcomes from PubChem BioAssay.

An excerpt (hit frequency here may not be typical).
